Screens (PubChem BioAssay)
CtBP-E1A blk – CtBP/E1A binding inhibition. AlphaScreen GST-E1A/His-CtBP binding, 1536-well; hits give low values; control for the full effect not named in the record. activity change, % (concentration not given with the values). 0.49% of 340,000 active; in the data active means activity change below about -65%; inconclusive means about -30% to -65%; inactive means above about -30%; also: % is scaled to controls: 0 for no effect and ±100 for the full control effect
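AlphaScreen with 125 nM GST-E1A and 125 nM His-CtBP (5X stocks) in Tris pH 8.0, 300 mM NaCl, BSA, Tween 20, TCEP. Compounds preincubated 2 h at 37 deg C, then glutathione donor/nickel acceptor beads added for 1 h at 37 deg C in dark.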
TRPML1 agonist – activates the human TRPML1 channel; activation, % (test concentration not listed); 0.12% of 410,000 active; AID 624414; Q9GZU1; TRPML1-expressing cells, Ca2+ dye fluorescence, FDSS; host cell line not named in the record; reference of the full effect not given here; in the data active = activation above about 50%; inconclusive = about 30% to 50%; inactive = below about 30%; also: 0% is about no effect; the text of the record puts the active cut at 80%
Target sequence (Q9GZU1 whole entry, looked up): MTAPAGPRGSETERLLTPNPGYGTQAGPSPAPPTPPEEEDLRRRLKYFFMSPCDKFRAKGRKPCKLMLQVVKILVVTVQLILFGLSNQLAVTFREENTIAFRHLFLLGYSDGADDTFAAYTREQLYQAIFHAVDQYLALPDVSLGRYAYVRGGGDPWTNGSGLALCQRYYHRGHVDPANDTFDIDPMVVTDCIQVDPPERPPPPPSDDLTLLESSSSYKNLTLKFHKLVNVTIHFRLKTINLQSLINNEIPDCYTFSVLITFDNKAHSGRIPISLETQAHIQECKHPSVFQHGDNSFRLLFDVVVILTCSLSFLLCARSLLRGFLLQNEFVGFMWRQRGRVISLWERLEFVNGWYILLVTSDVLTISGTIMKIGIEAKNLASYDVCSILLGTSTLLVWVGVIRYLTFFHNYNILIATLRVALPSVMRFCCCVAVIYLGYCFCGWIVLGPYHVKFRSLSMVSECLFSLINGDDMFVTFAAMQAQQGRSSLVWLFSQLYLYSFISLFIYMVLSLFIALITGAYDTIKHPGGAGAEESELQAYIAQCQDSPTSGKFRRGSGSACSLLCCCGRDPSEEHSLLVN
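Calcium fluorescence on an FDSS kinetic reader gave the read-out. Tet-induced TRPML1-DL cells were plated overnight, dye-loaded (Ca8 with quencher, 45-90 min, room temperature, dark), then read 110 s after compound addition, and again 110 s after 4uM final 54-4 (EC80).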
D2 ag – human D2 receptor agonism in beta-arrestin assay. P14416. DiscoveRx PathHunter D2 beta-arrestin, luminescence, 90 min; 100% = 57 uM dopamine signal. activation, % (concentration not given with the values). 0.084% of 360,000 active; in the data active = activation above about 40%; inconclusive = about 15% to 40%; inactive = below about 15%; also: compound concentration not given in the record; the text of the record calls up to 30% inactive
Target sequence (P14416 whole entry, looked up): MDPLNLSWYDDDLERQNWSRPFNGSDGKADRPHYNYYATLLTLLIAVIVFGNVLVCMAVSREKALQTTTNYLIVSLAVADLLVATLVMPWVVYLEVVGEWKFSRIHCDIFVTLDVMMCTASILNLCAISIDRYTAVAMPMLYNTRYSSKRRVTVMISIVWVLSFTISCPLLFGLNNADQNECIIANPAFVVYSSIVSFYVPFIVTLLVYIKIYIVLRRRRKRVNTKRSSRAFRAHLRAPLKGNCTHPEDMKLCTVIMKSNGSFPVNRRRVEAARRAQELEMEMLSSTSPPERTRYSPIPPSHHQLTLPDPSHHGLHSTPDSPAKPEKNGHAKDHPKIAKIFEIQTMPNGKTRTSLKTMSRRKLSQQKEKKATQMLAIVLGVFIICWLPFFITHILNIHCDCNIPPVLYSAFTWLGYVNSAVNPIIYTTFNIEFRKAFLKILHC
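DiscoveRx PathHunter D2 beta-arrestin cells (2,100/well) attached overnight, then compound-stimulated 90 min at 37 C in HBSS/10 mM HEPES/0.1% Tween-20 buffer; beta-galactosidase complementation read by luminescence after 1 h at ambient temperature. Dopamine 57 uM final (EC100) as control.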
Six1-Eya2 inh – blocks human Six1 binding to Eya2; Q15475+O00167; AlphaScreen GST-Six1/His-Eya2 binding, biochemical; hits give low values; control for the full effect not named in the record; activity change, % (concentration not given with the values); 0.56% of 360,000 active; AID 651725; in the data active = activity change below about -65%; inconclusive = about -30% to -65%; inactive = above about -30%; also: % is scaled to controls: 0 for no effect and ±100 for the full control effect
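Compounds are tested against tagged Six1 and Eya2 proteins bridged by glutathione donor and nickel acceptor beads; after a one-hour incubation at 37 °C without light, AlphaScreen emission is recorded.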
PINK1 expr mod – PINK1 expression modulation. PINK1 immunofluorescence, high-content cytometry, 24 h. Potency, µM (doses to about 76.6 µM), for inactives: top-dose activation (PINK1 increase), hits mostly activators. 0.2% of 410,000 active; active = well fitted activation curve with a large enough effect; inconclusive = small, poorly fitted or top-dose-only effect; inactive = flat fitted curve, though single readings scatter; cell line not stated here;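 also: potency is read from the fitted curve at half-maximal effect; % of control where 0% means no effect; nearly all actives have a fitted effect of over 65% in size; a mitochondrial uncoupler was the plate control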
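Stable cell line treated 24 h with compounds at 5 concentrations (CCCP controls), then fixed and immunostained for PINK1 plus nuclear and cell stains; PINK1 immunofluorescence quantified by laser-scanning microplate cytometry.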
D2 potentiator – human D2 receptor positive allosteric modulation; P14416; DiscoveRx D2 beta-arrestin cells, luminescence, 90 min; 100% = 57 uM dopamine signal; potentiation, % (concentration not given with the values); 0.23% of 360,000 active; active = potentiation of 50% or more; inconclusive = 30% to 50%; inactive = 30% or less;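 also: compound concentration not given in the record; tested on top of an EC20 dose of dopamine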
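D2 cells co-treated with compound plus 50 nM dopamine (EC20) for 90 min at 37 deg C to detect potentiation. Beta-arrestin recruitment was read as enzyme-fragment luminescence after 1 h at ambient temperature. Full response was set by 57 uM dopamine.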
The depositor's hits bear a star; u = inconclusive; x = no result given; & = joins results of further samples; [ ] = another dose, or the depositor's remark.

Start of the listing, in advance, four compounds:
SMILES	CtBP-E1A blk	TRPML1 agonist	D2 ag	Six1-Eya2 inh	PINK1 expr mod	D2 potentiator
Cc1nn(-c2ccccc2)c(C)c1NC(=O)COc1cc(F)ccc1[N+](=O)[O-]	1	-0.1	8.9	2	-0.8%	4
CCOC(=O)C(C(=O)OCC)C(C(=O)OCC)N1CCOCC1 (stereo not drawn)	12	-0.5	-2.5	1	-6.3%	-4
CCOc1cc(/C=C(/C#N)c2ccc(F)cc2)ccc1OCc1ccc(C(=O)O)o1	-22	-0.3	4.3	-17	2.5%	15
CCC1(c2ccc(F)cc2)NC(=O)N(CC(=O)N2CCOCC2)C1=O (stereo not drawn)	3	-0.4	-1.3	12	1.4%	-1

Main list, from the first entry:
SMILES	CtBP-E1A blk	TRPML1 agonist	D2 ag	Six1-Eya2 inh	PINK1 expr mod	D2 potentiator
Cc1nn(-c2ccccc2)c(C)c1NC(=O)COc1cc(F)ccc1[N+](=O)[O-]	1	-0.1	8.9	2	-0.8%	4
CCOC(=O)C(C(=O)OCC)C(C(=O)OCC)N1CCOCC1 (stereo not drawn)	12	-0.5	-2.5	1	-6.3%	-4
CCOc1cc(/C=C(/C#N)c2ccc(F)cc2)ccc1OCc1ccc(C(=O)O)o1	-22	-0.3	4.3	-17	2.5%	15
CCC1(c2ccc(F)cc2)NC(=O)N(CC(=O)N2CCOCC2)C1=O (stereo not drawn)	3	-0.4	-1.3	12	1.4%	-1
COC(=O)CN1C(c2ccccc2)=Nc2ccc(Cl)cc2C1c1ccccc1 (stereo not drawn)	-15	1.3	-3.2	-8	x	-49
COc1ccc(S(=O)(=O)N(C)CC(=O)Nc2ccc3c(c2)OCO3)cc1OC	2	-0.2	-0.4	-1	-1.5%	7
CCC(C)(C(=O)NC1CCCCC1)N(C)C(=O)c1ccccn1 (stereo not drawn)	-1	1.9	1.6	12	-1.1%	-12
CNC1(C(N)=O)CCN(Cc2ccccc2)CC1	2	0.8	-2.1	4	2.2%	-14
CC1CCCN(S(=O)(=O)c2cc(C(=O)NCCc3ccc(S(N)(=O)=O)cc3)ccc2Cl)C1 (stereo not drawn)	-1	2.3	11	-1	3.4%	-1
Cc1ccc(C2CC(=O)Oc3cc(C)c(Br)c(C)c32)cc1 (stereo not drawn)	8	-1.2	0.5	8	24%	3
CCOc1ccc(C(C(=O)NC2CCCC2)N(CCCO)C(=O)c2ccc(-c3ccccc3)[nH]2)cc1 (stereo not drawn)	x	0.0	-5.8	-16	-0.4%	-24
Cc1cc(/C=C(/C#N)C(=O)Nc2ccc(Cl)cc2)c(C)n1-c1cccnc1	-1	1.0	-4.2	5	u	-18
CCOc1ncccc1C(=O)OC(C)C(=O)NC(=O)NC1CCCCC1 (stereo not drawn)	-6	1.6	2.0	4	-0.5%	-4
CCc1ccc(CNC(=O)CCC(=O)N2Cc3cccc(OC)c3Oc3ncccc32)cc1	x	1.6&1.1	6.5	3	3.6%&-1.5%	2
CCOC(=O)C(=CNc1ccc(O)c(C(=O)OC)c1)C(=O)OCC	5	1.3	7.9	-2	0.0%	20
COc1ccc(-c2[nH]ncc2/C=N\NS(=O)(=O)c2ccccc2)cc1OC	0	1.0	-0.9	4	-0.5%	-5
CCNc1nc(SCCOc2ccccc2)nc(N(C)C)n1	35	0.6	-0.8	34	6.8%[38.3 µM]	-19
CC(C)Oc1ccc(C(CC(=O)NCc2ccco2)c2ccccc2)cc1 (stereo not drawn)	-23	3.0	-2.1	-12	-3.1%[38.3 µM]	-7
Cc1ccc2nc3c(cc2c1)CN(Cc1ccco1)C(=NCC1CCCO1)S3 (stereo not drawn)	-7	-0.4	-2.4	-8	4.2%	1
Cc1ccc(-c2cc(=O)c3ccc(F)cc3[nH]2)cc1	1	-0.4	-2.1	0	6.9%	-6
Cc1ccc(S(=O)(=O)N(CC(=O)O)c2ccc(Cl)c(C(F)(F)F)c2)cc1	2	0.5	-4.7	10	1.1%	-12
COc1cc(Nc2cc(C)nc3nc(C)nn23)cc(OC)c1OC	17	0.3	3.4	3	2.8%	0
COc1cccc(C(N)=O)c1	9	x	0.6	5	-0.2%	-16
Cc1ccc(S(=O)(=O)N2CCCCC2)cc1C(=O)N1CCCC1	-6	0.9	-0.4	6	-3.6%	10
COc1cccc(OCCSc2nnc3sc4ccccc4n23)c1	u	-0.3	-2.6	-19	0.5%	-7
SMILES	CtBP-E1A blk	TRPML1 agonist	D2 ag	Six1-Eya2 inh	PINK1 expr mod	D2 potentiator
O=C1/C(=N\S(=O)(=O)c2cccs2)C([n+]2ccc(CCCc3ccccc3)cc2)=C([O-])c2ccccc21	0	-0.6	7.8	0	-3.4%	11
CN(CC(=O)Nc1c(Cl)cccc1Cl)C(=O)c1n[nH]c2ccccc12	1	-0.8	0.2	3	1.7%	1
CC(=O)Nc1cccc(-c2ccnc3c2CC(C(=O)NCc2ccc(F)c(F)c2)O3)c1 (stereo not drawn)	-6	-1.1	5.4	-1	4.6%	3
Cc1cc(O)c(C)c(O)c1/C=N/NC(=O)c1cccnc1	u	0.2	0.1	u	-0.9%	-12
COCCCNC(=O)Cn1cc(/C=C(\C#N)C(=O)N2CCN(c3ccccc3)CC2)c2ccccc21	2	2.8	1.4	-2	0.2%	-17
O=C(CSc1nnc(-c2cccnc2)n1C1CCCCC1)NC1CCCCC1	1	1.8	-2.4	-1	1.0%[38.3 µM]	-6
CCOC(=O)C1C(C(=O)OC)=C(C(=O)OC)c2ccccc2N1S(=O)(=O)C(F)(F)F (stereo not drawn)	9	-1.2	0.4	-3	-1.2%	-1
Cc1noc(N)c1C(=O)Nc1ccc(C(C)(C)C)cc1	-3	1.2	0.4	4	-1.1%	u
CCN(CC)S(=O)(=O)c1ccc(NS(=O)(=O)c2ccc(C)c(C)c2)cc1	0	0.2	-0.1	4	0.3%[38.3 µM]	-9
O=C(O)CN(c1ccccc1)S(=O)(=O)c1cc(C(F)(F)F)cc(C(F)(F)F)c1	-19	0.7	-3.0	-8	-1.9%	-7
COc1ccc(N2C(=O)C(=O)/C(=C(/O)c3ccc(C)cc3)C2c2cccnc2)cc1 (stereo not drawn)	11	0.9	-3.0	-1	-0.5%	-6
CS(=O)(=O)NC1c2cccc3cccc(c23)C1N1CCOCC1 (stereo not drawn)	5	0.9	-4.5	2	-1.0%[38.3 µM]	-27
COc1ccc(CCC(=O)OCC(=O)Nc2ccccc2)cc1	3	-0.2	-3.4	11	-1.9%	-5
CCOC(=O)C1(C)CCN1C(=O)CSc1ccccc1 (stereo not drawn)	8	0.2	-2.4	4	0.4%	1
COC(C(=O)N/N=C(\C)CC(=O)Nc1ccc(N(C)C)cc1)c1ccccc1 (stereo not drawn)	-3	0.4	0.0	-12	-1.6%	0
CCCCC(=O)Nc1cccc(NC(=O)c2ccc3c(c2)OCO3)c1	-7	-0.4	-1.2	-4	1.4%[38.3 µM]	-17
CC(NC(=O)COC(=O)/C=C/c1ccc([N+](=O)[O-])cc1)c1ccccc1 (stereo not drawn)	u	1.0	-2.7	-30	0.3%	24
COc1ccc(C(=O)Nc2cc3c(cc2C#N)OCO3)cc1S(=O)(=O)N1CCN(C)CC1	-21	0.1	-4.5	5	0.7%	-3
Cc1cc(C)cc(N(CC(=O)O)S(=O)(=O)c2c(C)noc2C)c1	10	0.7	0.2	7	x	-27
COc1ccc(N2CCN(Cc3cc(=O)oc4cc(C)c(Cl)cc34)CC2)cc1	0	-0.6	-5.2	-6	2.1%	-11
CC(C)Oc1ccc(C(CC(=O)N(C)CCC#N)c2ccc(F)cc2)cc1 (stereo not drawn)	10	1.8	-1.5	4	-1.2%	-11
CCCCC(=NCCc1c(C)[nH]c2ccc(OC)cc12)C1=C(O)CC(c2ccccc2)CC1=O (stereo not drawn)	-2	1.2	2.2	-27	2.9%	-20
Cc1ccc(Nc2nc(C(=O)N3CCC(C(=O)NC(C)C)CC3)cs2)cc1	x	-0.2	-6.1	0	-1.7%	-12
C[C@@H]1CN([C@H](C)CO)C(=O)c2cc(NC(=O)Cc3ccccc3)ccc2O[C@H]1CN(C)Cc1ccc(Oc2ccccc2)cc1	9	0.4	4.4	-13	1.0%	-3
CCC(C)n1c(-c2cccc(S(=O)(=O)N(CC)CC)c2)n[nH]c1=S (stereo not drawn)	-12	0.1	0.0	0	0.3%	-10

Three compounds from above, arranged by their value in CtBP-E1A blk, descending.
Compound,CtBP-E1A blk,D2 ag,Six1-Eya2 inh,PINK1 expr mod,D2 potentiator
COc1ccc(N2C(=O)C(=O)/C(=C(/O)c3ccc(C)cc3)C2c2cccnc2)cc1 (stereo not drawn),11,-3.0,-1,-0.5%,-6
COCCCNC(=O)Cn1cc(/C=C(\C#N)C(=O)N2CCN(c3ccccc3)CC2)c2ccccc21,2,1.4,-2,0.2%,-17
CCC(C)n1c(-c2cccc(S(=O)(=O)N(CC)CC)c2)n[nH]c1=S (stereo not drawn),-12,0.0,0,0.3%,-10

Going on with the list:
SMILES	CtBP-E1A blk	TRPML1 agonist	D2 ag	Six1-Eya2 inh	PINK1 expr mod	D2 potentiator
COc1ccc(S(=O)(=O)N2CCC(C(=O)NCC(=O)Nc3c(C)cccc3C)CC2)cc1OC	-3	0.4	-1.3	-4	1.4%	-9
Cc1onc(-c2ccccc2)c1C(=O)c1c[nH]c(C(=O)NCc2ccccn2)c1	-13	2.4	10	-2	-0.6%	6
O=CC1=C(N2CCOCC2)/C(=C/c2ccc(Cl)cc2)CC1	7	1.3	0.1	-7	5.5%	-6
CCC(C)c1ccccc1OCC(=O)NN1C(=O)c2ccccc2C1=O (stereo not drawn)	8	1.0	1.8	0	2.3%	-4
CC(=O)n1c2ccccc2c2nc(NC(C)C)sc21	-1	3.2	-5.2	-7	-1.6%	67*
CCOC(=O)C1CCCN(Cc2nc(N)nc(Nc3ccc(C)cc3)n2)C1 (stereo not drawn)	5	-0.3	-2.2	-7	0.1%	-35
COc1ccc(C(=O)N2CC(c3ccccc3)CC2=O)cc1 (stereo not drawn)	-2	-0.7	-2.5	-5	1.0%	-8
CC(C)NC(=O)N(O)C1N(C(C)C)C(=O)N(Cc2ccc3c(c2)OCO3)C1(C)C (stereo not drawn)	-1	0.1	0.0	10	0.0%	-9
Cn1c(Cc2ccc3c(c2)OCO3)nnc1SCC(=O)N1CCc2ccccc2C1	-4	3.6	-3.0	-4	-2.4%[38.3 µM]	-5
O=C(Cc1ccc(F)cc1)Nc1cc(S(=O)(=O)N2CCOCC2)ccc1N1CCCCC1	5	0.0	-2.9	1	0.3%	-8
S=C(NCc1ccco1)N1CCN(c2cccc(Cl)c2)CC1	-10	1.8	2.0	-10	0.5%	-7
CC(=O)Nc1ccc(S(=O)(=O)NC2(C(F)(F)F)NC(=O)N(C3CCCCC3)C2=O)cc1 (stereo not drawn)	7	2.4	-2.2	4	12%[38.3 µM]	0
Cc1cc(C(=O)NCC(c2cccs2)N2CCOCC2)ccc1[N+](=O)[O-] (stereo not drawn)	-2	-0.6	0.6	-1	7.7%	-23
CCCCn1c(=O)[nH]c(=O)c2c1nc(-c1ccccc1F)n2Cc1ccccc1	0	1.1	3.9	-7	-0.6%	3
CCOC(=O)/C(C#N)=C/Nc1ccccc1OC	6	1.1	-1.6	-5	1.0%	3
CCc1nc2c(OCCC3CCCCC3)cccn2c1N(C)C(=O)c1ccncc1	-24	-0.3	2.4	0	1.6%	-13
Cc1nn(Cc2c(Cl)cccc2Cl)c(C)c1C(=O)NCc1ccc(C)n1C	-7	-0.8	2.1	1	1.8%	-5

Compounds as they come. Share with any hit: about 1.3%.
